# PINK1 expr mod – changes PINK1 expression. PINK1 immunofluorescence, high-content cytometry, 24 h. Potency, µM (series often up to 76.6 µM), without a hit: at the highest dose activation (PINK1 increase), usual class: activators. actives 0.2% (n = 410,000). AID 624263; active = well fitted activation curve with a large enough effect; inconclusive = small, poorly fitted or top-dose-only effect; inactive = flat fitted curve, though single readings scatter; cell line not stated here;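 further: potency means the concentration at half of the fitted maximal effect; % of control where 0% means no effect; nearly all actives have a fitted effect of over 65% in size; a mitochondrial uncoupler was the plate control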
#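 Readout is PINK1 immunofluorescence, quantified alongside mitochondrial, cell and nuclear markers by laser-scanning microplate cytometry. Cells from a stable line were exposed to compound titrations (5 concentrations) for 24 hours, with CCCP controls.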
# TRPML1 ag – activates the human TRPML1 channel; TRPML1-expressing cells, Ca2+ dye fluorescence, FDSS; host cell line not named in the record; reference of the full effect not given here; activation, % (no concentration beside the values); actives 0.12% (n = 410,000); in the data active = activation above about 50%; inconclusive = about 30% to 50%; inactive = below about 30%; further: 0% is about no effect; the text of the record puts the active cut at 80%
# Target sequence (Q9GZU1 whole entry, looked up): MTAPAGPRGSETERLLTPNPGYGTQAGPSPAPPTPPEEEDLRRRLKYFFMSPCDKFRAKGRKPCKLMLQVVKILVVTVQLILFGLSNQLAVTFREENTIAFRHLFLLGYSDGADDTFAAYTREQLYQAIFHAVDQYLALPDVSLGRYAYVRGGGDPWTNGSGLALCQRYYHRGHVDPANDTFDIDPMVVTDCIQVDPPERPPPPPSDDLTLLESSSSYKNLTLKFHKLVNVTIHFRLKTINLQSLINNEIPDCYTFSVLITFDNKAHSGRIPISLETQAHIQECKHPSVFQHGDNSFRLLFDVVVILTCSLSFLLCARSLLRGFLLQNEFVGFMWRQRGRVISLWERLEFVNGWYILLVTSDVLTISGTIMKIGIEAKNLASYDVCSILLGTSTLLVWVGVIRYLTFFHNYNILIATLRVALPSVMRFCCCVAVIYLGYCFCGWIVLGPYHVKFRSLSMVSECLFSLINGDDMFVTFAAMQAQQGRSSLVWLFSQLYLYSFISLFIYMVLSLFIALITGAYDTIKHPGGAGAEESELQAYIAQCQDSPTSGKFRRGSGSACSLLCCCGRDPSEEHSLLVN
#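 TRPML1-DL cells, Tet-induced overnight (~16 h, 37 degrees C), loaded 45-90 min at room temperature with Ca8 no-wash calcium dye plus quencher. FDSS fluorescence: 10 s baseline, compound pin-transfer, 110 s agonist read, then EC80 54-4 (4uM final) and 110 s antagonist read.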
# CtBP-E1A inh – CtBP/E1A binding inhibition; AlphaScreen GST-E1A/His-CtBP binding, 1536-well; active compounds read low; control for the full effect not named in the record; activity change, % (no concentration beside the values); actives 0.49% (n = 340,000); AID 651724; in the data active means activity change below about -65%; inconclusive means about -30% to -65%; inactive means above about -30%; further: on the % scale 0 is the no-effect control and ±100 the full control effect
#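 GST-E1A and His-tagged CtBP (125 nM each as 5X stock) were preincubated with pin-transferred compound for 2 h at 37 °C in the dark, then glutathione donor and nickel acceptor beads were added for 1 h before AlphaScreen reading.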
# Six1-Eya2 inh – blocks human Six1 binding to Eya2 | activity change, % (test concentration not listed) | AlphaScreen GST-Six1/His-Eya2 binding, biochemical; active compounds read low; control for the full effect not named in the record | actives 0.56% (n = 360,000) | Q15475+O00167; in the data active = activity change below about -65%; inconclusive = about -30% to -65%; inactive = above about -30%; further: on the % scale 0 is the no-effect control and ±100 the full control effect
#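 Six1/Eya2 binding was read as AlphaScreen signal after compounds were pinned into GST-Six1 plus His-tagged Eya2 (5X stock 250/500 nM) in pH 8.0 Tris/NaCl/TCEP buffer, beads added, then incubated 1 h, 37 C, dark.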
# TRPML1 inh – blocks the human TRPML1 channel. TRPML1-inducible cells, Ca2+ dye fluorescence, FDSS; active compounds read low; inhibition of EC80 agonist-evoked calcium signal. activity change, negative = inhibition, % (no concentration beside the values). actives 0.02% (n = 390,000). AID 624415; in the data active means activity change below about -50%; inconclusive means about -30% to -50%; inactive means above about -30%;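 further: stimulus is agonist 54-4 at its EC80 concentration; on the % scale 0 is the no-effect control and ±100 the full control effect; compound concentration not given in the record; the text of the record puts the active cut at -80%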
#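 Tet-induced TRPML1-DL cells loaded with Ca8 no-wash calcium dye were read kinetically on FDSS. Compound addition was followed by EC80 agonist 54-4 (4 uM final); inhibition was read over 110 s.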
# D2 ag – activates the human D2 dopamine receptor; P14416; DiscoveRx PathHunter D2 beta-arrestin, luminescence, 90 min; 100% = 57 uM dopamine signal; activation, % (test concentration not listed); actives 0.084% (n = 360,000); AID 624465; in the data active = activation above about 40%; inconclusive = about 15% to 40%; inactive = below about 15%; further: compound concentration not given in the record; the text of the record calls up to 30% inactive
# Target sequence (P14416 whole entry, looked up): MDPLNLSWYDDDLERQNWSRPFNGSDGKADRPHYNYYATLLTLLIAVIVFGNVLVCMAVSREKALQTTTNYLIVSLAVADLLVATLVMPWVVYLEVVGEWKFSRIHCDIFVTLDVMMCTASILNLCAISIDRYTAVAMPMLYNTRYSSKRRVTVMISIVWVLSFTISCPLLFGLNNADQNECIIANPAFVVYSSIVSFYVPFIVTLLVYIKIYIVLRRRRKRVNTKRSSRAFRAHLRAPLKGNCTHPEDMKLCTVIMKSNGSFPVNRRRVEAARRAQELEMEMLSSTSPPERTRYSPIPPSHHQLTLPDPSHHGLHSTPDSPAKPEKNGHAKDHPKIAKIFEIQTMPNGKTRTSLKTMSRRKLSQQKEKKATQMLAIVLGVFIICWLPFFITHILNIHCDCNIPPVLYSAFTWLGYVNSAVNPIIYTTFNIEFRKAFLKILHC
#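 DiscoveRx PathHunter D2 beta-arrestin cells (2,100/well) attached overnight, then compound-stimulated 90 min at 37 C in HBSS/10 mM HEPES/0.1% Tween-20 buffer; beta-galactosidase complementation read by luminescence after 1 h at ambient temperature. Dopamine 57 uM final (EC100) as control.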
# * hit, by the source's call; ? = inconclusive; . = not tested or not shown; & = joins results of further samples; [ ] = remark or other dose.
SMILES,PINK1 expr mod,TRPML1 ag,CtBP-E1A inh,Six1-Eya2 inh,TRPML1 inh,D2 ag
OC(COc1c(F)cc(Br)cc1F)CN1CCc2ccccc2C1 (stereo not given),12%,.,.,16,.,-3.4
CCn1cc(/C=N\NC(=O)c2cc(-c3ccccc3OC)nc3ccccc23)c(C)n1,-2.3%,0.9,-20,-15,8,-2.5
CCN1C(=O)c2ccccc2Sc2ccc(NC(=O)Nc3ccc(C(C)=O)cc3)cc21,1.4%,1.1,.,.,23,.
COc1ccc(C2NC(=O)c3sc4nc(C)c(C(C)=O)c(-c5ccc(Cl)cc5)c4c3N2)cc1 (stereo not given),9.1%,-0.9,10,10,2,0.7
O=C(Cc1c(Cl)cccc1Cl)Nc1ccncc1,0.5%,1.1,-19,0,0,-0.9
Cc1cc2c(cc1S(=O)(=O)Nc1cccc(Cl)c1C)n(C)c(=O)c(=O)n2C,2.9%,1.8,.,.,6,.
COC(=O)[C@H]1C[C@@H]1[C@H](NC(=O)c1ccccc1)c1ccccc1,-0.8%,-0.8,12,16,3,-1.6
O=C(CC1C(=O)NCCN1Cc1cccc(F)c1F)NC1CCCCCC1 (stereo not given),-1.9%,-0.5,0,-2,10,-1.0
CCOC(=O)N1CCC(NC(=O)CN2C(=O)COc3ccc(C(C)(C)C)cc32)CC1,-1.6%,-0.9,-12,-4,-9,-5.2
CC(C)(C)OC(=O)n1cc(C(=O)c2ccccc2O)cn1,6.2%,0.8,9,-6,5,-0.1
CCOC(=O)c1c(S(=O)(=O)NCC(=O)N2CCN(c3ccccc3)CC2)c(C)n(C)c1C,-0.6%&1.7%,0.0&1.0,4,11,44&-10,-1.2
COc1cccc(C2CC(=O)Nc3cc(OC)c(OC)cc32)c1 (stereo not given),-0.6%,1.1,-14,4,-8,3.2
CCC(Oc1ccccc1OC)C(=O)Nc1ccc2c(c1)OCO2 (stereo not given),-0.1%,-0.1,7,1,-9,-2.2
Cn1c(SCc2nc3ccccc3n2CCO)nc2ccccc21,0.6%,-0.1,-1,-2,1,-2.9
Cc1ccc2nc(C)cc(SCC(=O)N/N=C/c3ccco3)c2c1,2.5%,-0.4,?,?,0,2.5
COCCn1c(C)cc(C(=O)COc2ncnc3ccc(Br)cc23)c1C,1.7%,1.1,-8,0,-10,-0.4
CCOC(=O)c1c(C)[nH]c(C)c1S(=O)(=O)NCC(=O)NCc1ccc(C)cc1,-0.4%,-0.4,.,.,20,.
Clc1ccccc1Nc1nc(-c2ccncc2)nc2ccccc12,-1.2%,1.6,-1,5,5,13
O=C1CN(C(=O)COC(=O)c2c(F)cccc2Cl)c2ccccc2N1,2.2%,-1.0,.,-5,12,-1.1
NC(=O)c1ccccc1NC(=O)COC(=O)CSCc1cccc(Cl)c1,1.2%,1.8,4,-1,-10,2.7
COCCNC(=S)N/N=C(\C)c1ccc(-n2ccnc2)cc1,-4.2%[38.3 µM],-0.5,-15,-7,-2,1.0
CC(=O)N1CCc2cc(S(=O)(=O)CCC(=O)N3CCN(C(=O)c4ccco4)CC3)ccc21,-0.9%,-1.0,-3,10,-3,0.1
FC(F)(F)Oc1ccc(-c2cn3cccnc3n2)cc1,1.6%,-0.9,.,1,-11,-0.8
COc1ccccc1C(CNc1ccc(S(=O)(=O)N2CCCC2)cc1[N+](=O)[O-])N(C)C (stereo not given),-0.2%,-0.2,-5,-23,-9,0.3
CCCc1n[nH]c(=O)c2c1nnn2Cc1ccccc1F,-1.5%,-0.8,2,-1,2,2.0
C[C@H]1CN=C(Nc2ccccc2)N1CCCC1CCCC1,-0.9%,0.2,4,4,16,0.0
Cc1cccnc1CNC(=O)C1CCC(=O)N(CCc2cccc(F)c2)C1 (stereo not given),-1.8%,-1.1,2,1,-3,-4.5
CCOc1ccc(S(=O)(=O)N2CCC(C(=O)N3CCCCCC3)CC2)cc1C,-1.0%,3.8,-3,-5,16,-5.5
COc1cc(CNc2ccc3[nH]c(=O)[nH]c3c2)ccc1OCc1ccccc1C,5.2%,-0.2,-12,?,0,0.5
COC(=O)c1ccc(C2/C(=C(\O)c3ccc(OC)c(C)c3)C(=O)C(=O)N2c2cc(C)on2)cc1 (stereo not given),-0.7%,0.3,-3,1,47,-1.0
CCc1ccccc1Nc1nn2c(=O)c3ccc(C(=O)NCCc4ccccc4)cc3nc2s1,-4.3%,1.0,.,.,31,.
CCOc1ccc(CCNC(=O)c2cc(=O)[nH]c3ccc(S(=O)(=O)N(CC)CC)cc23)cc1OCC,4.4%,0.3,2,-1,-19,-5.2
Cc1ccc(NC(=O)COC(=O)c2ccco2)cc1C,-2.2%,-0.3,0,4,?,-1.1
O=C(N/N=C/c1ccco1)C1CC1c1ccccc1 (stereo not given),-0.2%,-0.2,-5,-9,-13,-6.8
CCN(CC)C(=O)C1=C(C)N(CCC2=CCCCC2)C(=O)C(CC(=O)NCc2cccc3ccccc23)C1 (stereo not given),6.8%,0.8,0,17,9,7.9
COc1ccc2c(c1)c1ncn(CCCN3CCOCC3)c(=O)c1n2C,1.2%[38.3 µM],3.7,-27,-29,-2,-1.1
Cn1cc(CCC(=O)NCc2cccc(Cl)c2)c2ccccc21,3.3%,-0.6,-5,-5,20,3.3
NS(=O)(=O)c1ccc(N/N=C/c2ccncc2)cc1,0.1%,-0.3,1,-2,0,5.7
CCOc1ccc(NC(=O)CC2NCCNC2=O)cc1 (stereo not given),-0.9%,-0.4,1,1,12,-2.8
CCN(CC)CCOc1c(C)cccc1Cl,3.2%,0.9,7,-5,25,1.4
CCN(CC)CCn1c2ccccc2c2nc(C)sc21,-3.0%,-0.9,0,-1,-1,-5.3
COc1ccc(-c2ccnc(SCC(=O)c3ccc(Cl)cc3)n2)cc1,2.4%,0.8,2,14,8,-0.3
O=C(NCc1ccc(Cl)cc1)c1cnccn1,-1.0%,-0.6,3,6,4,-2.8
COC(=O)C(NNc1ccccc1)(NC(=O)c1ccc(F)cc1)C(F)(F)F (stereo not given),2.1%,0.1,-7,-5,-9,-1.8
FC(F)(F)c1cccc(N2CCN(CC3CC=CCC3)CC2)c1 (stereo not given),0.7%,6.9,9,10,19,0.8
CCn1nc(C)c(C2C(C#N)=C(N)Oc3n[nH]c(C)c32)c1C (stereo not given),7.5%,-0.2,0,12,12,-3.7
NC(=O)CC(NC(=O)Cc1ccc(Br)cc1)c1ccc(NCCc2ccc(Cl)cc2)c([N+](=O)[O-])c1 (stereo not given),4.0%,0.7,-14,-12,-13,-2.5
COc1ccc(S(=O)(=O)NC(=O)C2(C)CCN2C(=O)C(C)(C)c2ccccc2)cc1 (stereo not given),-0.6%,-0.4,4,-1,.,-2.8
CC1CCCCC12NC(=O)N(CC(=O)Nc1cccnc1)C2=O (stereo not given),3.0%,-0.9,8,-1,5,0.9
Cc1nnc(SCCC(=O)Nc2ccccc2Cl)o1,-1.3%,-0.7,6,0,12,-2.0
# Remaining list, next part:
SMILES,PINK1 expr mod,TRPML1 ag,CtBP-E1A inh,Six1-Eya2 inh,TRPML1 inh,D2 ag
CCOC(=O)c1cccc(NC(=O)c2cccs2)c1,1.5%,1.4,-9,-6,33,-2.4
CN(c1ccccc1)S(=O)(=O)c1ccc2c(c1)oc(=O)n2C,2.0%,-0.7,8,3,-3,-2.1
CCCCNC1CCS(=O)(=O)C1 (stereo not given),3.6%[38.3 µM],-0.4,19,7,3,-0.2
O=C(NNc1ccc(F)cc1F)C1CCC1,-0.8%,-0.2,-23,-13,5,-2.2
Cc1ccc(C(=O)O)cc1NCc1ccncc1,-1.3%,0.2,-3,-20,-16,-1.7
COC(=O)c1ccccc1NC(=O)NC1CCN(Cc2ccccc2)CC1,0.5%[38.3 µM],0.8,-2,2,-6,3.2
CCOC(=O)CNC(=S)N(Cc1ccccc1)Cc1cccnc1,1.0%,-0.5,-4,7,20,-3.2
CC(C)=CCC/C(C)=C/CNC(=O)CC1C[C@H](C(=O)N(C(C)C)C(C)C)[C@@]2(C)c3[nH]c4ccccc4c3CCN2C1=O (stereo not given in full),3.4%,-0.6,-1,4,-7,-1.5
Cc1nc(-c2ccc([N+](=O)[O-])cc2)c(-c2ccccc2)o1,-1.3%,-1.0,-27,?,-8,-2.4
CC(=O)c1c(C)nc2ccccc2c1N,1.2%,-0.4,-4,11,-5,-1.0

# Not a retest: an excerpt of the list.
SMILES,PINK1 expr mod,TRPML1 ag,CtBP-E1A inh,Six1-Eya2 inh,TRPML1 inh,D2 ag
Cc1ccc(C(=O)O)cc1NCc1ccncc1,-1.3%,0.2,-3,-20,-16,-1.7
COC(=O)c1ccccc1NC(=O)NC1CCN(Cc2ccccc2)CC1,0.5%[38.3 µM],0.8,-2,2,-6,3.2
CCOC(=O)CNC(=S)N(Cc1ccccc1)Cc1cccnc1,1.0%,-0.5,-4,7,20,-3.2
CC(C)=CCC/C(C)=C/CNC(=O)CC1C[C@H](C(=O)N(C(C)C)C(C)C)[C@@]2(C)c3[nH]c4ccccc4c3CCN2C1=O (stereo not given in full),3.4%,-0.6,-1,4,-7,-1.5
Cc1nc(-c2ccc([N+](=O)[O-])cc2)c(-c2ccccc2)o1,-1.3%,-1.0,-27,?,-8,-2.4
CC(=O)c1c(C)nc2ccccc2c1N,1.2%,-0.4,-4,11,-5,-1.0

# More structures
SMILES,PINK1 expr mod,TRPML1 ag,CtBP-E1A inh,Six1-Eya2 inh,TRPML1 inh,D2 ag
O=C(O)CCCNC(=O)/C(=C\C=C\c1ccccc1)NC(=O)c1ccccc1Cl,-3.2%,0.8,1,1,-13,1.5
CCOC(=O)Cc1csc(NC(=O)c2c(O)c3ccccc3n(CC(C)C)c2=O)n1,2.5%[38.3 µM],-0.7,0,2,-4,-3.5
Cc1cccc(CN2CCC(C(=O)Nc3ccc(Oc4cccnc4)cc3)CC2)c1,0.8%,2.9,-6,-3,4,-1.6
Cc1noc(C)c1COC(=O)/C=C/c1ccccc1Cl,0.1%,1.9,8,-1,51,-2.2
Cc1ccc(OCCSc2nc(-c3ccccc3C)nc3cc(=O)[nH]n23)cc1Cl,2.2%,0.4,.,.,-4,.
COc1ccccc1NC(=O)Nc1nc(C(N)Cc2ccc(C(F)(F)F)cc2)cs1 (stereo not given),-1.0%,0.4,-13,-2,.,?
CN(C(=O)c1ccc2c(c1)C(=O)N(CCC1=CCCCC1)C2=O)C1CCCCC1,6.8%,-0.1,3,2,55,-2.6
CCCCCC(=O)N1CC2(CC(c3cccc(NC(=O)COc4ccc(Cl)cc4)c3)=NO2)C[C@@H]1C(N)=O (stereo not given in full),1.7%,-0.2,-3,2,-3,-0.6
CCN(CC)C(=S)NC(=O)c1ccc(F)cc1,5.3%,2.1,-10,9,-21,-8.8
Cc1ccc2ncnc(-c3ccccc3)c2c1,2.2%,-1.2,0,0,9,0.5
Cc1ccc(Cl)cc1N1CCN(C(=O)c2cc(S(=O)(=O)N3CCCCCC3)cn2C)CC1,0.5%,0.1,.,.,0,.
Cn1cc(Br)cc2nc(C(F)(F)F)nc1-2,-0.3%,-0.2,0,0,-3,-2.4
O=C(O)Cc1ccc(NC(=O)C2CCCCC2C(=O)O)cc1 (stereo not given),5.4%,0.7,5,1,-6,4.7

# Assay outcomes from PubChem.
